MgrA-DNA mod – S. aureus MgrA-DNA binding modulation; fluorescence polarization; 0.13% of 84,000 active; inhibition, %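 (about 10 µg/mL by stock and volumes)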;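 active = above 50% in either of two replicates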;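 also: 0% = protein plus DNA without compound and 100% = DNA alone without protein; higher means less MgrA bound to DNA so lower polarization; one replicate is shown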
S aureus helic – S. aureus DNA helicase inhibition; 0.05% of 120,000 active; inhibition, %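 (tested at about 80 µM)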; purified S. aureus helicase, fluorescence unwinding assay; about half of the hits fall short of the stated cut;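 active = both duplicates at 50% or more, or one of them with a favoured structure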;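 also: 0% = mean of negative control wells and 100% = mean of positive control wells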
* marks the source's active call; other numbers are inactive results; · = not tested or not shown. The list is partial (hit frequency here may not be typical).

1	O=C1C2C(c3ccccc3)C=CC(c3ccccc3)C2C(=O)N1c1ccc(O)cc1 (stereo unspecified)
2	C=CCNc1nc(N)c(C(=C(C#N)C#N)c2ccccc2)s1
3	CN(C)c1nc(Oc2ccc(/C=N/O)cc2)nc(N(C)C)n1
4	CC(C)CNC(=O)C1CC(=O)N(c2ccc(OCC(=O)Nc3ccc(F)cc3)cc2)C1 (stereo unspecified)
5	O=C1NC(=[N+]2CCCCC2)S/C1=C\c1ccc(-c2ccc(Br)cc2)o1
6	CCOC(=O)c1c(-c2ccccc2)csc1/N=C/c1c(C)[nH]n(-c2ccccc2)c1=O

Assay by compound | 1 | 2 | 3 | 4 | 5 | 6
MgrA-DNA mod | · | 6.5 | · | · | · | -2.0
S aureus helic | 5 | 3 | 2 | -8 | 12 | ·

7	COc1ccc2[nH]cc(C(=O)NCCc3ccccc3)c(=O)c2c1
8	Brc1ccc(CN2CCN(Cc3ccco3)CC2)cc1
9	CC1CCCCC1N=C1NN=C(c2ccccc2)CS1 (stereo unspecified)
10	CCOC(Cn1c(COc2ccccc2)nc2ccccc21)OCC
11	COc1cccc(/C=C2\CC(C)C/C(=C\c3ccccc3OC)C2=O)c1 (stereo unspecified)
12	CSc1n[nH]c(=O)n1C1CCCCC1

Assay by compound | 7 | 8 | 9 | 10 | 11 | 12
MgrA-DNA mod | -4.8 | -0.8 | · | · | -0.7 | -2.5
S aureus helic | 7 | 13 | 19 | 6 | 3 | ·

Full records from above. Screens in order: MgrA-DNA mod	S aureus helic
Profile of CC1CCCCC1N=C1NN=C(c2ccccc2)CS1 (stereo unspecified) → ·	19
Profile of CSc1n[nH]c(=O)n1C1CCCCC1 → -2.5	·

Following part:
13	Cc1noc(C)c1S(N)(=O)=O
14	CCCCC1CN2CCc3c([nH]c4ccccc34)C2(C)C1 (stereo unspecified)
15	COc1ccc(OCC(=O)N(c2ccccc2)C(C)C)cc1
16	O=C1CCSC(=O)N1CN1CCN(S(=O)(=O)c2ccc(Cl)cc2)CC1
17	COc1ccc(CNCCNC(=O)c2cccs2)c(OC)c1OC
18	N#CC1(NC(=O)CSc2nnc(-c3ccc4c(c3)OCO4)o2)CCCCC1

Assay by compound | 13 | 14 | 15 | 16 | 17 | 18
MgrA-DNA mod | · | 1.0 | · | · | 16 | ·
S aureus helic | -2 | 2 | -17 | 11 | 12 | 15

19	CCCn1c2c(c(=O)n(C)c1=O)C(c1ccc(Br)cc1)C1=C(COC1=O)N2 (stereo unspecified)
20	Cc1ccc(C(=O)C(C)OC(=O)c2cc(C)nc3ccccc23)cc1 (stereo unspecified)
21	Cc1cc(NC(=O)CSCc2nc3c(nnn3Cc3c(F)cccc3Cl)c(=O)[nH]2)no1
22	CCN(CC)S(=O)(=O)c1ccc(NC(=O)Cc2cccs2)cc1
23	CCOC(=O)c1cnc2sc3c(n2c1=O)CCCC3
24	CC(=O)N(C)c1ccc(N=Cc2cccs2)cc1

Assay by compound | 19 | 20 | 21 | 22 | 23 | 24
MgrA-DNA mod | · | -11 | · | 6.2 | · | 4.3
S aureus helic | 10 | 1 | -25 | 3 | -11 | 9

25	CCc1ccc(Nc2nnc(SCC(=O)O)s2)cc1
26	S=C(CN1CCCC1=S)N1CCOCC1
27	CCOC(=O)Nc1cc(Cl)cc(Cl)c1
28	O=C1c2ccccc2-c2nc3ccccc3nc21
29	C=CCSc1nnc2n(-c3ccc(OC)cc3)c(=O)c3c4c(sc3n12)COC(C(C)C)C4 (stereo unspecified)
30	CC(=O)Nc1ccc(S(=O)(=O)CCO)cc1

Assay by compound | 25 | 26 | 27 | 28 | 29 | 30
MgrA-DNA mod | · | 0.7 | -0.2 | · | · | -0.3
S aureus helic | 5 | 7 | · | 42 | 20 | 2

31	CNC(=O)OC(C)(C)C#Cc1cncnc1
32	CCC(=O)Nc1ccc(C(=O)COc2cccc(-n3cnnn3)c2)cc1
33	COC(=O)c1cc(NC(=O)c2ccc(N3CC4CC(C3)c3cccc(=O)n3C4)c(N)c2)cc(C(=O)OC)c1 (stereo unspecified)
34	CC(C)NC(=O)N1CCCN(c2nc3ccc(Cl)cc3s2)CC1
35	O=C1OC(c2ccc(-c3ccccc3)cc2)=N/C1=C\c1ccco1
36	CC1Cc2ccccc2N1C(=O)c1cc(Cl)cc(Cl)c1 (stereo unspecified)

Assay by compound | 31 | 32 | 33 | 34 | 35 | 36
MgrA-DNA mod | 0.6 | · | · | · | -0.3 | 1.7
S aureus helic | · | -17 | 13 | -20 | 6 | 1

37	CCc1ccc2[nH]c(=O)c(CN(CCO)C(=S)NCc3ccco3)cc2c1
38	N#Cc1c(NC(=O)CSc2nnc3ccccn23)sc2c1CCC2
39	Cc1ccc2nc3c4ccccc4cnc3n2c1
40	CC(C)OC(=O)c1ccc2c(c1)no[n+]2[O-]
41	O=C(CSc1ccccc1)N1CCN(c2ccc(F)cc2)CC1
42	O=C(Nc1c(C(=O)c2ccccc2)oc2ccccc12)c1cccs1

Assay by compound | 37 | 38 | 39 | 40 | 41 | 42
MgrA-DNA mod | 3.5 | · | · | 0.4 | 1.9 | -0.1
S aureus helic | 2 | -5 | -18 | 8 | -7 | 8

Three compounds picked at random from the list so far, as already listed:
39	Cc1ccc2nc3c4ccccc4cnc3n2c1
37	CCc1ccc2[nH]c(=O)c(CN(CCO)C(=S)NCc3ccco3)cc2c1
41	O=C(CSc1ccccc1)N1CCN(c2ccc(F)cc2)CC1

Assay by compound | 39 | 37 | 41
MgrA-DNA mod | · | 3.5 | 1.9
S aureus helic | -18 | 2 | -7

Continuation:
43	O=C(NCCSCc1ccco1)C1CCC1
44	O=C(O)CSc1nc2scc(-c3ccccc3)c2c(=O)[nH]1
45	Cc1cc(Cl)ccc1OCCCC(=O)NCc1ccccn1
46	O=C(CSc1nc2ccccc2o1)Nc1ccccc1C(F)(F)F
47	COC(=O)c1ccccc1C(=O)c1ccccc1
48	CC(C)(C(=O)O)N1C(=O)c2ccccc2C1=O

Assay by compound | 43 | 44 | 45 | 46 | 47 | 48
MgrA-DNA mod | · | -0.9 | · | -3.6 | 2.9 | ·
S aureus helic | -18 | -5 | -5 | · | 12 | -10

49	Cc1ccccc1N1C(=O)CS/C1=C(/C#N)C(=O)N1CCCCC1
50	COc1ccc(CC(=O)NC2CCN(CC(=O)c3ccc(F)cc3)CC2)cc1OC
51	COc1ccc(NC(=O)C2CC(c3cccc(OC)c3)=NO2)cc1 (stereo unspecified)
52	c1csc(-c2cc(N3CCCCC3)c3ccccc3n2)c1
53	O=C(O)CCCSc1ncnc2sc3c(c12)CCCC3
54	COc1ccccc1S(=O)(=O)N(C)Cc1ccccc1

Assay by compound | 49 | 50 | 51 | 52 | 53 | 54
MgrA-DNA mod | -1.5 | 2.7 | -1.1 | -1.4 | · | ·
S aureus helic | -14 | 10 | 11 | · | -16 | -8

55	CCOC(=O)c1ccc(NC(=O)CSc2nccn2-c2cccc(C)c2C)cc1
56	O=C(O)[C@@H](c1ccccc1)N1C(=O)c2ccccc2C1=O
57	N#Cc1cccnc1Oc1ccccc1
58	Clc1ccc(/C=N/N2CCOCC2)cc1
59	CN(C)c1ccc(P(=O)(C2CCCC2=O)C2CCCC2=O)cc1 (stereo unspecified)
60	O=C(CSc1cc(Cl)ccc1Cl)NC1CC1

Assay by compound | 55 | 56 | 57 | 58 | 59 | 60
MgrA-DNA mod | 0.8 | · | 0.3 | -0.9 | · | ·
S aureus helic | -13 | -37 | · | · | -13 | -5

61	CN(C)c1ccc(C=Nc2ccc(C(=O)O)cc2)cc1
62	C/C=N/Nc1nc(C)cc(C)n1
63	CC/C(O)=C(\C#N)c1nnc2n1CCCCC2
64	CCSc1nnc(NC(=O)c2ccccc2Cl)s1
65	COCCN1COc2c(cc(Cl)c3cccnc23)C1
66	C/C(=N\NC(=O)c1cccnc1)c1ccc(-n2ccnc2)cc1

Assay by compound | 61 | 62 | 63 | 64 | 65 | 66
MgrA-DNA mod | -2.8 | · | · | · | · | ·
S aureus helic | -20 | 8 | 1 | -1 | 12 | -5

67	N#Cc1c(N)sc2c1CCCC2
68	CN1C=C(C(F)(F)F)C=CC1=C1C(=O)c2ccccc2C1=O
69	CC1CCCCN1CC(=O)NCc1ccc(Cl)cc1 (stereo unspecified)
70	Cc1ccc2nc(Cc3nc4ccc(C)cc4[nH]3)[nH]c2c1
71	Cc1onc(-c2ccccc2)c1C(=O)NNc1ccc(Cl)cc1
72	CN(C)c1nc(-c2ccc(OC(F)F)cc2OC(F)F)cs1

Assay by compound | 67 | 68 | 69 | 70 | 71 | 72
MgrA-DNA mod | 7.2 | · | · | · | · | ·
S aureus helic | 5 | -11 | -10 | 20 | 9 | 10

73	C=CCN1C(=O)C(Cc2ccc(F)cc2)S/C1=N\N=C/c1ccco1 (stereo unspecified)
74	CCOc1ccc(-n2c(=O)c3sccc3n(CC(=O)Nc3ccccc3C(=O)OC)c2=O)cc1
75	CCc1cc(-c2nc(N)ncc2-c2cscn2)c(O)cc1OC
76	CS(=O)(=O)N1CCN(C(=S)NC2CCCCC2)CC1
77	O=C1CSC(c2ccccc2F)N1 (stereo unspecified)
78	CCOC(=O)c1c(Cn2nnc3ccccc32)nc2ccccc2c1C

Assay by compound | 73 | 74 | 75 | 76 | 77 | 78
MgrA-DNA mod | 6.8 | · | · | 1.4 | · | ·
S aureus helic | 16 | 5 | -18 | -1 | -17 | -7

79	CS(=O)(=O)c1ccccc1F
80	Fc1ccc(-c2csc(Nc3cccnc3)n2)cc1
81	COC(Cn1c(SCC(=O)Nc2cc(Cl)cc(Cl)c2)nnc1-c1ccccc1)OC
82	Cc1cc(CO)c(C)n1-c1ccncc1
83	O=C(Nc1ccccc1C(F)(F)F)NN1CCOCC1
84	CSC(=Nc1c(C)cccc1C)N(C)C

Assay by compound | 79 | 80 | 81 | 82 | 83 | 84
MgrA-DNA mod | · | -0.5 | -3.4 | -1.6 | 0.4 | 2.5
S aureus helic | 4 | · | · | 13 | -7 | ·

85	O=S(CCc1ccncc1)Cc1ccccc1 (stereo unspecified)
86	CC(=O)Nc1ccc(Nc2cc(C)nc3ccccc23)cc1
87	CCn1c2ccccc2c2nnc(SCC(=O)Nc3ccc4c(c3)OCO4)nc21
88	O=C(Cn1c(=O)c(C(F)(F)F)nc2ccccc21)NCc1ccccc1
89	COc1ccc(/C=N/NC(=O)CN2CCSCC2)c(OC)c1
90	CCCc1c(C(=O)OCC)c(C(=O)OCC)c2c(-c3ccccc3)nc(N3CCOCC3)nn12

Assay by compound | 85 | 86 | 87 | 88 | 89 | 90
MgrA-DNA mod | · | 5.0 | · | -0.2 | -0.8 | 0.3
S aureus helic | 12 | 10 | 1 | 17 | · | 0

91	Cc1c(CC(=O)O)c(=O)oc2c(C)c3occ(C(C)(C)C)c3cc12
92	COc1cccc(Nc2ccc(-c3ccccc3)nn2)c1
93	CN1CCN(c2ncnc3oc(-c4ccccc4)c(-c4ccccc4)c23)CC1
94	COc1cc(N2CCCC2)c([N+](=O)[O-])cc1[N+](=O)[O-]
95	O=C(CSc1ncn[nH]1)c1ccco1
96	COc1ccc2cc3c(N)nn(C(=O)Cc4ccccc4OC)c3nc2c1

Assay by compound | 91 | 92 | 93 | 94 | 95 | 96
MgrA-DNA mod | 0.6 | -3.5 | · | 1.0 | · | ·
S aureus helic | 6 | · | 5 | · | -9 | 6

97	O=C1CCCN1C(c1ccc(Br)cc1)N1CCCC1=O
98	Cc1cc(=O)c2ccc(Cl)cc2[nH]1
99	c1cncc(C2=Nc3ccccc3C(c3cccnc3)=NN2)c1
100	O=C(O)c1c(CNCc2ccco2)c2ccccc2n1Cc1ccccc1
101	O=C(c1ccccc1C(=O)N1CCOCC1)N1CCOCC1
102	O=C(Nc1nc(SCc2ccc(F)cc2)ns1)c1cccs1

Assay by compound | 97 | 98 | 99 | 100 | 101 | 102
MgrA-DNA mod | · | · | 5.0 | · | 6.8 | ·
S aureus helic | 0 | 30 | 6 | -36 | -1 | -8

The final four compounds of the section before open the next one.
99	c1cncc(C2=Nc3ccccc3C(c3cccnc3)=NN2)c1
100	O=C(O)c1c(CNCc2ccco2)c2ccccc2n1Cc1ccccc1
101	O=C(c1ccccc1C(=O)N1CCOCC1)N1CCOCC1
102	O=C(Nc1nc(SCc2ccc(F)cc2)ns1)c1cccs1
103	COc1ccc(CNC(=O)NC2CCN(S(=O)(=O)c3ccc(OC)cc3)CC2)cc1
104	CCCN(CCC)C(=O)c1cc2c(=O)n3ccccc3nc2s1
105	Cc1c(NC(=O)COC(=O)C23CC4CC(CC(O)(C4)C2)C3)c(=O)n(-c2ccccc2)n1C
106	COc1ccccc1NC(C)C(=O)N/N=C/c1cccs1 (stereo unspecified)
107	COC(=O)CC1C(=O)NCCN1C(=O)c1ccccc1 (stereo unspecified)
108	COc1ccc(C2=C(C(C)=O)C(C)=NC(=S)C2C#N)cc1 (stereo unspecified)

Assay by compound | 99 | 100 | 101 | 102 | 103 | 104 | 105 | 106 | 107 | 108
MgrA-DNA mod | 5.0 | · | 6.8 | · | · | · | · | · | -1.0 | -1.5
S aureus helic | 6 | -36 | -1 | -8 | -19 | -1 | -1 | -36 | 11 | ·

109	CC(C)CNC(=O)c1cnn2c(C(F)(F)F)cc(C(F)(F)F)nc12
110	Cc1ccc(C)n1-c1ccc(OC(F)(F)F)cc1
111	COC(=O)c1cc2sccc2n1CC#N
112	COC(=O)c1ccc(COc2ncnc3c2cnn3-c2ccccc2)o1

Assay by compound | 109 | 110 | 111 | 112
MgrA-DNA mod | -0.8 | 0.2 | -0.2 | ·
S aureus helic | · | · | 6 | -8

From PubChem
